Assay outcomes as filed in PubChem.
TRPML1 ag: qHTS for Agonists of the Human Mucolipin Transient Receptor Potential 1 (TRPML1); TRPML1-expressing cells, Ca2+ dye fluorescence, FDSS; host cell line not named in the record; reference of the full effect not given here; activation, % (no concentration beside the values); 410,000 compounds, 0.12% hits; in the data active = activation above about 50%; inconclusive = about 30% to 50%; inactive = below about 30%; note: 0% is about no effect; the text of the record puts the active cut at 80%
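TRPML1-DL cells, Tet-induced overnight (~16 h, 37 degrees C), loaded 45-90 min at room temperature with Ca8 no-wash calcium dye plus quencher. FDSS fluorescence: 10 s baseline, compound pin-transfer, 110 s agonist read, then EC80 54-4 (4uM final) and 110 s antagonist read.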
D2 agonist: Beta-Arrestin HTS for Positive Allosteric Modulators of the Human D2 Dopamine Receptor: Agonists; D(2) dopamine receptor (Homo sapiens), P14416; activation, % (concentration not given with the values); 360,000 compounds, 0.084% hits; DiscoveRx PathHunter D2 beta-arrestin, luminescence, 90 min; 100% = 57 uM dopamine signal; in the data active = activation above about 40%; inconclusive = about 15% to 40%; inactive = below about 15%; note: the text of the record calls up to 30% inactive
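DiscoveRx PathHunter D2 beta-arrestin cells (2,100/well) attached overnight, then compound-stimulated 90 min at 37 C in HBSS/10 mM HEPES/0.1% Tween-20 buffer; beta-galactosidase complementation read by luminescence after 1 h at ambient temperature. Dopamine 57 uM final (EC100) as control.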
D2 PAM: Beta-Arrestin HTS for Positive Allosteric Modulators of the Human D2 Dopamine Receptor: Potentiators. D(2) dopamine receptor (Homo sapiens), P14416. DiscoveRx D2 beta-arrestin cells, luminescence, 90 min; 100% = 57 uM dopamine signal. potentiation, % (no concentration beside the values). 360,000 compounds, 0.23% hits. AID 624464, 2012; active = potentiation of 50% or more; inconclusive = 30% to 50%; inactive = 30% or less;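 note: compound concentration not given in the record; tested on top of an EC20 dose of dopamine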
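PathHunter D2 cells, attached overnight at 37 deg C, received compound in DMSO plus dopamine at EC20 (50 nM final) for 90 min at 37 deg C. Beta-arrestin recruitment was read as luminescence after 1 h with detection reagent at ambient temperature.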
Six1-Eya2 blk: qHTS Assay for Inhibitors of the Six1/Eya2 Interaction | 360,000 compounds, 0.56% hits | activity change, % (no concentration beside the values) | Homeobox protein SIX1 (Homo sapiens) + Protein phosphatase EYA2 (Homo sapiens), … | AlphaScreen GST-Six1/His-Eya2 binding, biochemical; active compounds read low; control for the full effect not named in the record | AID 651725, 2012; in the data active = activity change below about -65%; inconclusive = about -30% to -65%; inactive = above about -30%; note: % is set by controls: 0 for no effect and ±100 for the full control effect
Target sequence (O00167 whole entry, looked up): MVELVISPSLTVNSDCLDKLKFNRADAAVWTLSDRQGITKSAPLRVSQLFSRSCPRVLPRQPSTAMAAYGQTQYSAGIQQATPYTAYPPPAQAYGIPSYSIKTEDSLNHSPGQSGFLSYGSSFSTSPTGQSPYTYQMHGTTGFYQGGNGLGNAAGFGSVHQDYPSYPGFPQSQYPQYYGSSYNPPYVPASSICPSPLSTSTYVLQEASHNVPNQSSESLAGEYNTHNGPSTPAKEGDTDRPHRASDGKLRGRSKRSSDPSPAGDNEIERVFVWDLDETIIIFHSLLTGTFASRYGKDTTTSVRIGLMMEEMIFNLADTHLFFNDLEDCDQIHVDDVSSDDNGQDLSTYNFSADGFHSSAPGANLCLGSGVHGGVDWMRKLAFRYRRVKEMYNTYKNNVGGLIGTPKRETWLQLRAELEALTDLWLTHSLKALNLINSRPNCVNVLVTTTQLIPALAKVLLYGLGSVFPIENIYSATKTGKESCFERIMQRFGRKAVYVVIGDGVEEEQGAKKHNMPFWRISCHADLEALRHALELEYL
Target sequence (Q15475 whole entry, looked up): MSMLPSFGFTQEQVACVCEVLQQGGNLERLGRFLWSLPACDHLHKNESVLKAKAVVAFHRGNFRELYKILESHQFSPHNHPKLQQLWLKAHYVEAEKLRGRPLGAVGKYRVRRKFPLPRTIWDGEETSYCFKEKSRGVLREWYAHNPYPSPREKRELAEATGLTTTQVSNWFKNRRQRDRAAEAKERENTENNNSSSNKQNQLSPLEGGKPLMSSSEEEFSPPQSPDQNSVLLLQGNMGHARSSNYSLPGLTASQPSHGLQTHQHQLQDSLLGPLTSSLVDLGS
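Compounds are tested against tagged Six1 and Eya2 proteins bridged by glutathione donor and nickel acceptor beads; after a one-hour incubation at 37 °C without light, AlphaScreen emission is recorded.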
PINK1 modulator: A Quantitative High throughput Screen to Identify Chemical Modulators of PINK1 Expression; 410,000 compounds, 0.2% hits; AID 624263, 2012; Potency, µM (highest dose often 76.6 µM), inactives show at the highest dose activation (PINK1 increase), most hits filed as activators; PINK1 immunofluorescence, high-content cytometry, 24 h; active = well fitted activation curve with a large enough effect; inconclusive = small, poorly fitted or top-dose-only effect; inactive = flat fitted curve, though single readings scatter; cell line not stated here;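 note: potency is the fitted concentration of half-maximal effect; % of control where 0% means no effect; nearly all actives have a fitted effect of over 65% in size; a mitochondrial uncoupler was the plate control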
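Fluorescence from anti-PINK1 antibody, together with nuclear and cell stains, was scanned on a laser-scanning cytometer. Before staining, stable-line cells were incubated 24 hours with compounds at 5 concentrations; primary antibody 12 h at 10 degrees C.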
CtBP-E1A inh: qHTS Assay for Inhibitors of the CtBP/E1A Interaction; AlphaScreen GST-E1A/His-CtBP binding, 1536-well; active compounds read low; control for the full effect not named in the record; 340,000 compounds, 0.49% hits; CtBP / adenovirus E1A interaction (AlphaScreen); activity change, % (no concentration beside the values); in the data active means activity change below about -65%; inconclusive means about -30% to -65%; inactive means above about -30%; note: % is set by controls: 0 for no effect and ±100 for the full control effect
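GST-E1A and His-tagged CtBP (125 nM each as 5X stock) were preincubated with pin-transferred compound for 2 h at 37 °C in the dark, then glutathione donor and nickel acceptor beads were added for 1 h before AlphaScreen reading.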
Numbers without * were called inactive; u = inconclusive; x = not tested or not shown; & = joins results of further samples; [ ] = remark or other dose.

SMILES	TRPML1 ag	D2 agonist	D2 PAM	Six1-Eya2 blk	PINK1 modulator	CtBP-E1A inh
Cc1nc(N)ncc1Sc1ccc(Cl)cc1	1.8	1.0	-8	10	0.1%	-21
CC(C)c1ccc(-c2nc(N3CCOCC3)[nH]c(=O)c2C#N)cc1	0.5	0.6	-4	5	-1.3%[38.3 µM]	2
Cc1ccc(C(C(=O)NC(C)(C)C)N(CC2CCCO2)C(=O)c2csnn2)cc1 (configuration not stated)	0.4	-1.2	-5	5	3.5%	-6
Cc1ccccc1NC(=O)CSc1nnc(-c2ccccc2)n1-c1ccccc1	0.9	-3.7	-34	-10	2.7%	-10
C=CCOc1nc2c(c(=O)n(C)c(=O)n2C)n1Cc1ccccc1	3.0	-0.5	5	-1	-1.2%	-1
COC(=O)c1cccc(S(=O)(=O)N2CCC(C)CC2)c1	-0.6	-1.3	-2	7	-0.1%	-1
O=C(CCN1CCOCC1)Nc1c(-c2ccccc2)c2cc(Br)ccc2[nH]c1=O	0.2	-0.2	-3	-1	u	-19
Cc1nn(-c2ccccc2)c(Cl)c1C(=O)NNC(=O)c1ccccc1O	3.1	0.5	-1	-9	-0.1%	-29
C=CCNC(=O)c1ccccc1NC(=O)Cc1ccccc1[N+](=O)[O-]	-0.5	-3.0	-8	4	0.8%	10
Cc1cc(C)cc(N(CC(=O)N2CCN(Cc3ccccc3)CC2)S(=O)(=O)c2c(C)noc2C)c1	-0.1&0.3	-4.8	2	4	0.0%&5.0%	-24
CC(C)OC(=O)c1cccc(-c2ccc(C=O)o2)c1	0.2	-1.8	-13	11	-0.6%	10
COc1ccc(CNC(=O)c2ccc(-c3cccnc3)c3ccoc23)cc1OC	-0.7	12	-3	-21	-0.9%	u
OCC[C@@H]1C[C@H](O)[C@@H](O)[C@@]2(OCCc3cc(Cl)ccc32)O1	0.2	-4.5	-3	1	0.9%	7
CCOP(=O)(c1ccccc1)C(O)c1ccc([N+](=O)[O-])cc1 (configuration not stated)	1.1	2.7	-4	-18	0.8%	6
Cc1ccc(C2N(c3ccc(F)cc3)C(=O)C3CCCN32)cc1 (configuration not stated)	0.3	4.1	2	-1	0.9%	-1
CCOc1ccc(S(=O)(=O)N2CCN(CC)CC2)cc1NC(=O)c1ccccc1F	-0.5	2.8	-5	u	3.2%	u
CCCCn1c(N)c(N(CCOC)C(=O)c2cc(-c3ccc(C)cc3)nc3ccccc23)c(=O)[nH]c1=O	1.4	2.1	-5	7	1.9%	-1
Cc1cc(-c2ccc(C)c(S(=O)(=O)N3CCN(C(=O)c4ccco4)CC3)c2)on1	-0.6	-1.0	8	-6	-0.1%	-7
Cc1c(Cl)c([N+](=O)[O-])nn1Cc1ccc(C(=O)N/N=C\c2cccc(Br)c2)o1	0.3	4.3	-2	-27	0.7%	-25
Cc1cc(Nc2nc3c(c(=O)n(C)c(=O)n3C)n2C)n(-c2ccc(Cl)cc2)n1	-0.1	-0.7	-3	-1	1.9%	4
CNC(=O)OCc1snc(-c2ccccc2)c1COC(=O)NC	-1.2	2.5	0	7	-0.5%	3
Cc1cc(C)nc(SCCCNCc2ccccc2)n1	0.5	-3.8	-4	2	1.2%	2
Cc1cccc(-n2c(O)c(C=NC3CCS(=O)(=O)C3)c3ccccc3c2=O)c1C (configuration not stated)	0.5	-1.5	-6	4	2.8%	-3
OC[C@@H]1CN(CCN2CCOCC2)C[C@H](n2cnc3c(N4CCCC4)ncnc32)O1	-0.2	4.3	-1	1	0.5%	7
Cn1ncc2c(=S)[nH]c(=S)[nH]c21	-0.4	x	x	1	0.4%	4
Cc1cccc(N2CCN(C(=O)c3ccnn3C)CC2)c1C	-0.3	-2.4	12	4	1.1%	0
COc1ccc(S(=O)(=O)NC(C)C(=O)NCc2ccncc2)cc1Cl (configuration not stated)	0.0	-1.6	-7	2	0.8%	0
CC(/C=C/c1ccccc1)NC(N)=O (configuration not stated)	0.3	1.2	1	-1	-3.5%[38.3 µM]	-17
C=C1CCc2c([nH]c3ccc(OCC(C)C)cc23)C1=O	-1.4	0.6	-3	1	-2.9%	7
Nc1nc2sc3c(c2cc1C(=O)N1CCOCC1)CCCC3	-1.2	-0.5	-7	-5	-1.2%	-1
C1=CN2CCC1C(c1ccccc1)C2 (configuration not stated)	1.6	-1.5	-35	9	-0.1%	-1
O=C(Nc1ccnn1C1CCN(C2CCC2)CC1)c1cccc(F)c1	-0.1	1.7	-12	3	1.9%	5
COCC(=O)N(Cc1cc2ccc(C)cc2[nH]c1=O)c1ccccc1C	0.0	4.3	1	6	-0.9%	-6
COc1ccc(OC)c(NC(=O)C2CC2c2ccccc2)c1 (configuration not stated)	x	-3.4	0	0	1.9%	x
Cc1ccc(S(=O)(=O)NCCC(=O)N2CCC(Cc3ccccc3)CC2)cc1	2.6	-1.8	-8	-1	0.0%	6
Cc1sc2nc(SCC(=O)Nc3c(C)n(C)n(-c4ccccc4)c3=O)n(C)c(=O)c2c1C	1.0	-3.1	-3	-3	-2.5%	-1
Cc1nc([N+](=O)[O-])c(N2CCOCC2)n1Cc1ccccc1	-0.3	-5.2	-16	0	0.5%	x
CCOC(=O)Nc1ccc2c(c1)N(C(=O)CN)c1ccccc1CC2	0.6	-3.7	-2	-9	6.5%	0
COc1ccc2c(c1OC)C(=O)OC2Nc1nc(-c2ccc([N+](=O)[O-])cc2)cs1 (configuration not stated)	0.0	-2.9	-2	5	0.3%	1
COc1ccc(-c2nnn(CC(=O)N3CCOCC3)n2)cc1	-0.7	1.7	1	5	-1.6%[38.3 µM]	8
CC(NC(=O)C(=O)N1CCOCC1)C(c1cccs1)N1CCN(c2ccccc2)CC1 (configuration not stated)	-0.2	0.0	-7	2	0.5%	-4
Cc1ccc(C(=O)C[n+]2cccc3cc(C)ccc32)cc1	0.6	-2.5	-17	-4	-1.5%	-7
O=C1CC(c2ccccc2)n2nc(NC(=O)c3ccccn3)nc2N1 (configuration not stated)	-1.6	-2.3	10	-75*	15%	u
CCOC(=O)CC1C(=O)NCCN1C(=O)c1c(F)cccc1F (configuration not stated)	-0.2	-1.0	-14	1	-2.2%	3
COCCN(CCOC)Cc1c(O)ccc2c3c(c(=O)oc12)CCC3	-0.5	-1.0	-8	2	2.6%	-4
O=S(=O)(c1cccc(C(F)(F)F)c1)N1CCN(c2cnccn2)CC1	-0.4	-1.4	-2	-3	-1.5%	4
COCCn1c(=NC(=O)CCS(=O)(=O)c2ccccc2)sc2ccccc21	0.0	0.5	-3	1	2.2%	-10
COc1ccc(OCC(=O)NCc2cccnc2)cc1	0.9	-2.9	-10	3	0.9%	-2
O=C(Nc1ccccc1)Nc1nc(-c2ccccc2)cs1	-1.1	2.9	-8	9	2.6%	x
COc1cccc(N2C(=O)C(c3ccccc3)=C(c3nc4ccccc4s3)C2NC(C)=O)c1 (configuration not stated)	-0.6	0.2	14	-11	0.9%	-16
COc1ccc(C(=O)Nc2ccncc2)cc1S(=O)(=O)N1CCOCC1	1.1	-0.3	0	-1	-0.7%	-23
CCCNC(=O)N1CCN(C(c2ccccc2)c2ccccc2)CC1	0.9	0.0	-10	6	-0.9%	0
O=C(O)C1CCN(S(=O)(=O)c2cccs2)CC1	0.1	-3.0	-2	4	0.1%	5
COc1ccc(CN2CCN(C(C)C(=O)N3CCc4ccccc43)CC2)cc1OC (configuration not stated)	0.0	-3.4	-19	-10	-2.3%	-7
Cc1ccc(S(=O)(=O)N2CCN(CC(=O)NC(=O)NCc3ccco3)CC2)cc1C	0.1	-1.3	-7	-7	1.0%	-2
CC(C)C(NS(=O)(=O)c1cccc2nsnc12)C(=O)N1CCCCC1 (configuration not stated)	0.0	-1.8	-5	0	-1.3%	2
O=C(CC1C(=O)NCCN1Cc1cccc(F)c1F)NCCCC1CCCC1 (configuration not stated)	0.2	-0.7	1	2	-0.3%	0
COc1ccc2nc(NC(=O)c3cccc(N4C(=O)CCC4=O)c3)sc2c1	-0.9	4.0	6	-2	0.2%	-1
CCC(C(=O)OC(C)C(=O)Nc1ccc(Cl)cn1)c1ccccc1 (configuration not stated)	0.3	-2.3	-7	2	2.0%	8
O=C(/C=C/c1ccco1)NCc1ccc(F)cc1	1.1	4.0	-6	-9	-0.3%	x

Some of these compounds in order of length of the SMILES, rising.
SMILES	TRPML1 ag	D2 agonist	D2 PAM	Six1-Eya2 blk	PINK1 modulator	CtBP-E1A inh
O=C(/C=C/c1ccco1)NCc1ccc(F)cc1	1.1	4.0	-6	-9	-0.3%	x
O=C(O)C1CCN(S(=O)(=O)c2cccs2)CC1	0.1	-3.0	-2	4	0.1%	5
CCCNC(=O)N1CCN(C(c2ccccc2)c2ccccc2)CC1	0.9	0.0	-10	6	-0.9%	0
COCCN(CCOC)Cc1c(O)ccc2c3c(c(=O)oc12)CCC3	-0.5	-1.0	-8	2	2.6%	-4
COc1cccc(N2C(=O)C(c3ccccc3)=C(c3nc4ccccc4s3)C2NC(C)=O)c1 (configuration not stated)	-0.6	0.2	14	-11	0.9%	-16

The list continues:
SMILES	TRPML1 ag	D2 agonist	D2 PAM	Six1-Eya2 blk	PINK1 modulator	CtBP-E1A inh
COc1ccc(-c2oc3cc(O)c(OC)c(O)c3c(=O)c2OC)cc1O	2.2	0.7	-19	u	11%	u
Cc1ccc(C(=O)Nc2cc3[nH]c(=O)oc3cc2C)cc1	1.7	5.3	6	2	-1.6%	1
CCOC(=O)C1CCN(C(=O)CSc2nc(N)cc(=O)[nH]2)CC1	0.4	-2.1	-5	-5	-1.7%	-18
CCC(OCC(O)CN1CCCCC1)c1ccccc1 (configuration not stated)	-0.8	10	-11	4	-0.8%	x
COc1ccc(NC(=O)COC(=O)Cc2ccc(Br)cc2)cc1	1.4	-4.2	2	16	5.4%	29
O=C(O)c1cccc(NC(=S)NC(=O)C(c2ccccc2)c2ccccc2)c1	0.2	-4.2	-16	-7	-0.4%	-6
O=C(COC(=O)CNC(=O)c1cccc([N+](=O)[O-])c1)NCc1ccco1	-0.5	-0.4	1	1	1.2%	9
N#Cc1c(NC(=O)CN2CCN(S(=O)(=O)c3ccc4c(c3)OCCO4)CC2)sc2c1CCC2	1.1	-0.8	10	-2	1.7%	-2
CCN(CC)c1ccc(NC(=O)COC(=O)c2cccs2)cc1	-1.0	-4.1	1	-22	25%[38.3 µM]	-18
CCc1ccccc1NC(=O)c1cccc(Oc2ccc([N+](=O)[O-])cc2Cl)c1	1.7	-0.9	4	-10	1.9%	-4
